# HIV Env fusion – inhibitors of HIV Env-mediated cell fusion | HeLa-JRFL Env/CEM21 cell fusion, luciferase | 360,000 tested, 1.1% active | inhibition, % at 12.3 µM;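 active = mean replicate inhibition score of at least 50 and every replicate individually at or above 50; inconclusive = only one of the two criteria met; inactive = mean below 50 and not all replicates reaching 50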;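 also: 0% = plate neutral controls and 100% = maraviroc near 300 nM; one replicate is shown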
# Yeast UUG start – modulators of start codon recognition fidelity in yeast. activity score, % at 18.7 µM. 350,000 tested, 0.13% active. AID 602363. S. cerevisiae UUG-firefly luciferase reporter, luminescence/redox ratio;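 active = replicate mean at a twofold rise or more, about +100% in these data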;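 also: firefly luciferase made from a UUG start codon reports start codon fidelity; reporter light over untreated wells divided by growth signal over untreated wells; some hits fall short of that in this replicate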
# * hit, by the source's call; ? = inconclusive; [ ] = remark or other dose. Only part of the results is shown, so the mix of outcomes need not match the whole.
# Every second line gives: HIV Env fusion | Yeast UUG start
> C[C@H](CO)N1C[C@H](C)[C@H](CN(C)Cc2ccc(Oc3ccccc3)cc2)Oc2ccc(NS(=O)(=O)c3ccc(F)cc3)cc2C1=O
→ 22[16.7 µM] | 4
> N#C[C@@H]1[C@@H](c2ccc(-c3ccccc3F)cc2)[C@@H](CO)N1C(=O)C1CC1
→ -19[16.7 µM] | -11
> COc1ccc(NC(=O)Nc2ccc3c(c2)C(=O)N([C@@H](C)CO)C[C@H](C)[C@H](CN(C)C(=O)Nc2ccc(F)cc2)O3)cc1
→ -3[16.7 µM] | -12
> C[C@@H]1CN([C@@H](C)CO)S(=O)(=O)c2ccc(/C=C/c3ccccc3)cc2O[C@@H]1CN(C)C(=O)c1ccccc1
→ 11[16.7 µM] | -12
> CO[C@@H]1CN(C)C(=O)c2cc(NC(C)=O)ccc2OC[C@H](C)N(Cc2ccccc2C(=O)O)C[C@@H]1C
→ 5[16.7 µM] | -10
> C[C@@H]1CN([C@H](C)CO)C(=O)c2cc(-c3cccnc3)cnc2O[C@H]1CN(C)C
→ -21[16.7 µM] | 1
> COc1ccccc1-c1cnc2c(c1)C(=O)N([C@H](C)CO)C[C@@H](C)[C@@H](CN(C)C(=O)CN(C)C)O2
→ 15[16.7 µM] | 3
> CC(C)CC#Cc1cnc2c(c1)C(=O)N([C@H](C)CO)C[C@H](C)[C@H](CN(C)C(=O)Cc1cccnc1)O2
→ -96[16.7 µM] | -14
> COc1ccc(S(=O)(=O)Nc2ccc3c(c2)C(=O)N([C@@H](C)CO)C[C@H](C)[C@H](CN(C)Cc2ccccc2)O3)cc1
→ -3[16.7 µM] | 3
> CC(C)NC(=O)N[C@H]1C=C[C@@H](CC(=O)NCCCN(C)C)O[C@@H]1CO
→ -11[16.7 µM] | -10
> C[C@H](CO)N1C[C@H](C)[C@H](CN(C)C(=O)c2cnccn2)Oc2ncc(/C=C/c3ccccc3)cc2C1=O
→ 5[16.7 µM] | 16
> C[C@H]1CCCCO[C@@H](CN(C)Cc2ccc3c(c2)OCO3)[C@@H](C)CN([C@@H](C)CO)C(=O)c2cc(NC(=O)Nc3ccc(C(F)(F)F)cc3)ccc2O1
→ 47[16.7 µM] | -7
> CN1C(=O)c2cc(NC(=O)Cc3ccccc3)ccc2OC[C@@H]2O[C@@H](CC(=O)NCc3ccc(Cl)cc3)CC[C@H]21
→ 6[16.7 µM] | 13
> C[C@@H]1CN([C@H](C)CO)S(=O)(=O)c2ccc(C#Cc3cccnc3)cc2O[C@@H]1CN(C)C(=O)Nc1ccc2c(c1)OCO2
→ 22[16.7 µM] | -1
> COc1ccc(CN(C)C[C@H]2OCCCC[C@H](C)Oc3ccc(NC(=O)c4ccncc4)cc3C(=O)N([C@@H](C)CO)C[C@@H]2C)cc1
→ 23[16.7 µM] | 14
> COc1ccc(S(=O)(=O)N(C)C[C@@H]2Oc3cc(C#CC4CCCC4)ccc3S(=O)(=O)N([C@@H](C)CO)C[C@@H]2C)cc1
→ 1[16.7 µM] | -5
> Cc1ccc(S(=O)(=O)Nc2cccc3c2O[C@@H](CN(C)C(=O)Nc2ccc(C(F)(F)F)cc2)[C@@H](C)CN([C@H](C)CO)C3=O)cc1
→ -56[16.7 µM] | -4
> COc1ccc(C#Cc2ccc3c(c2)[C@]2(C(=O)N3)[C@H](C(=O)N3CCCCCCC3)[C@H]3C(=O)O[C@H](c4ccccc4)[C@H](c4ccccc4)N3[C@@H]2c2ccccc2OCCO)cc1
→ -9[16.7 µM] | 52
> C[C@H]1CN([C@@H](C)CO)C(=O)c2cccc(NC(=O)c3cnccn3)c2O[C@@H]1CN(C)Cc1ccccc1
→ -23[16.7 µM] | -11
> COC(=O)C(CC#Cc1ccc2c(c1)[C@]1(C(=O)N2)[C@H](c2ccccc2OCCO)N2[C@H](c3ccccc3)[C@H](c3ccccc3)OC(=O)[C@H]2[C@@H]1C(=O)Nc1nc2ccccc2s1)C(=O)OC
→ 30[16.7 µM] | -14
> CCS(=O)(=O)Nc1ccc2c(c1)C(=O)N(C)[C@H]1CC[C@H](CC(=O)NC3CCCCC3)O[C@H]1CO2
→ 11[16.7 µM] | -5
> COc1ccccc1CNC(=O)C[C@H]1CC[C@H](NC(=O)CN(C)C)[C@H](CO)O1
→ -1[16.7 µM] | -15
> CCS(=O)(=O)Nc1ccc2c(c1)C(=O)N(C)[C@H]1CC[C@H](CC(=O)NC3CCCCC3)O[C@@H]1CO2
→ 0[16.7 µM] | 3
> C[C@H]1CN([C@@H](C)CO)C(=O)c2cc(NS(=O)(=O)c3ccc(Cl)cc3)ccc2O[C@H]1CN(C)Cc1ccc(-c2ccccc2)cc1
→ -8[16.7 µM] | -10
> COCC#Cc1cnc2c(c1)C(=O)N([C@@H](C)CO)C[C@@H](C)[C@@H](CN(C)C(=O)Nc1cccc(F)c1)O2
→ -4[16.7 µM] | 12
> C[C@@H]1CN([C@@H](C)CO)C(=O)c2cc(NC(=O)CCCN(C)C)ccc2O[C@H]1CN(C)S(=O)(=O)c1cn(C)cn1
→ -2[16.7 µM] | 4
> COCc1cn(CC[C@H]2CC[C@H](NC(=O)c3ccccc3)[C@H](CO)O2)nn1
→ 6[16.7 µM] | 45
> C[C@H]1CCCCO[C@H](CN(C)Cc2ccc(Cl)c(Cl)c2)[C@@H](C)CN([C@@H](C)CO)C(=O)c2cc(NS(C)(=O)=O)ccc2O1
→ ? | 13
> C[C@@H]1CN([C@H](C)CO)C(=O)Cc2cc(N(C)C)ccc2O[C@@H]1CN(C)C(=O)Nc1ccc(C(F)(F)F)cc1
→ -2[16.7 µM] | -2
> C[C@@H]1CCCCO[C@@H](CN(C)C(=O)Cc2ccccc2)[C@H](C)CN([C@@H](C)CO)C(=O)c2cc(NC(=O)CCCN(C)C)ccc2O1
→ 10[16.7 µM] | 10

# Pulled by compound from the list above, five records:
# Every second line gives: HIV Env fusion | Yeast UUG start
> CC(C)CC#Cc1cnc2c(c1)C(=O)N([C@H](C)CO)C[C@H](C)[C@H](CN(C)C(=O)Cc1cccnc1)O2
→ -96[16.7 µM] | -14
> CO[C@@H]1CN(C)C(=O)c2cc(NC(C)=O)ccc2OC[C@H](C)N(Cc2ccccc2C(=O)O)C[C@@H]1C
→ 5[16.7 µM] | -10
> CCS(=O)(=O)Nc1ccc2c(c1)C(=O)N(C)[C@H]1CC[C@H](CC(=O)NC3CCCCC3)O[C@H]1CO2
→ 11[16.7 µM] | -5
> C[C@@H]1CN([C@H](C)CO)S(=O)(=O)c2ccc(C#Cc3cccnc3)cc2O[C@@H]1CN(C)C(=O)Nc1ccc2c(c1)OCO2
→ 22[16.7 µM] | -1
> COCc1cn(CC[C@H]2CC[C@H](NC(=O)c3ccccc3)[C@H](CO)O2)nn1
→ 6[16.7 µM] | 45

# Other compounds follow.
# Every second line gives: HIV Env fusion | Yeast UUG start
> CC(C)NC(=O)N(C)C[C@@H]1Oc2ccc(NC(=O)NC3CCCCC3)cc2CC(=O)N([C@@H](C)CO)C[C@@H]1C
→ 2[16.7 µM] | 4
> COc1ccc(NC(=O)Nc2ccc3c(c2)CC(=O)N([C@@H](C)CO)C[C@@H](C)[C@@H](CN(C)Cc2ccc(-c4ccccc4)cc2)O3)cc1
→ 10[16.7 µM] | 0
> Cc1ccc(S(=O)(=O)Nc2ccc3c(c2)C(=O)N([C@H](C)CO)C[C@H](C)[C@H](CN(C)S(=O)(=O)c2ccc(F)cc2)OCCCC[C@H](C)O3)cc1
→ -81[16.7 µM] | 8
> C[C@H]1CN([C@@H](C)CO)C(=O)c2cccc(NC(=O)c3cnccn3)c2O[C@H]1CN(C)CC1CCCCC1
→ -20[16.7 µM] | 4
> C[C@@H]1CN([C@@H](C)CO)S(=O)(=O)c2ccc(-c3ccccc3)cc2O[C@@H]1CN(C)C(=O)C1CC1
→ 19[16.7 µM] | -3
> CCCC(=O)Nc1ccc2c(c1)C(=O)N(C)[C@H]1CC[C@H](CC(=O)Nc3ccccc3)O[C@H]1CO2
→ -3[16.7 µM] | 2
> C[C@@H]1CCCCO[C@H](CN(C)C(=O)NC2CCCCC2)[C@@H](C)CN([C@H](C)CO)C(=O)c2cc(NC(=O)Nc3ccc(F)cc3)ccc2O1
→ 8[16.7 µM] | -5
> COc1ccc(NC(=O)Nc2ccc3c(c2)C(=O)N([C@H](C)CO)C[C@@H](C)[C@H](CN(C)CC2CCCCC2)O3)cc1
→ 5[16.7 µM] | 1
> C[C@@H]1CN([C@H](C)CO)S(=O)(=O)c2ccc(-c3ccc(C#N)cc3)cc2O[C@H]1CN(C)Cc1ccccn1
→ -102[16.7 µM] | -20
> COc1ccc(S(=O)(=O)Nc2ccc3c(c2)CC(=O)N([C@H](C)CO)C[C@@H](C)[C@H](CN(C)C(=O)Nc2ccccc2)O3)cc1
→ -2[16.7 µM] | 49
> C[C@H](CO)N1C[C@H](C)[C@H](CN(C)C)Oc2ccc(NC(=O)Nc3ccccc3)cc2CC1=O
→ -16[16.7 µM] | 6
> COc1ccc(CN(C)C[C@@H]2OCCCC[C@H](C)Oc3ccc(NS(=O)(=O)c4ccc(F)cc4)cc3C(=O)N([C@@H](C)CO)C[C@H]2C)cc1
→ 9[16.7 µM] | 21
> O=C(C[C@@H]1C=C[C@@H](NC(=O)C2CC2)[C@H](CO)O1)Nc1ccccc1
→ -26[16.7 µM] | -15
> C[C@H](O)C#Cc1ccc2c(c1)O[C@H](CN(C)C(=O)CC1CC1)[C@@H](C)CN([C@@H](C)CO)S2(=O)=O
→ -20[16.7 µM] | 4
> C/C=C/c1ccc2c(c1)O[C@@H](CN(C)C(=O)C1CC1)[C@H](C)CN([C@@H](C)CO)S2(=O)=O
→ 3[16.7 µM] | -10
> C[C@H](CO)N1C[C@H](C)[C@H](CN(C)Cc2ccccc2)Oc2ccc(NC(=O)c3ccncc3)cc2CC1=O
→ 15[16.7 µM] | -12
> Cc1noc(C)c1S(=O)(=O)N(C)C[C@@H]1Oc2ccc(NS(=O)(=O)c3cn(C)cn3)cc2CC(=O)N([C@H](C)CO)C[C@H]1C
→ -9[16.7 µM] | -6
> C[C@@H]1CN([C@H](C)CO)C(=O)c2cc(-c3ccc(F)cc3)cnc2O[C@H]1CN(C)CC1CCOCC1
→ 23[16.7 µM] | -9
> COc1ccc(NC(=O)N(C)C[C@H]2OCCCC[C@@H](C)Oc3ccc(NS(=O)(=O)c4c(C)noc4C)cc3C(=O)N([C@H](C)CO)C[C@@H]2C)cc1
→ -17[16.7 µM] | 17
> CCC(=O)N[C@H]1C=C[C@@H](CC(=O)NCC2CCCCC2)O[C@@H]1CO
→ 17[16.7 µM] | -9
> CN1CCN(C(=O)C[C@@H]2C[C@@H]3c4cc(NC(=O)Nc5ccc(C(F)(F)F)cc5)ccc4O[C@@H]3[C@@H](CO)O2)CC1
→ 0[16.7 µM] | -1
> C[C@H](CO)N1C[C@H](C)[C@H](CN(C)S(=O)(=O)c2ccc(Cl)cc2)Oc2ccc(NC(=O)Nc3ccc(C(F)(F)F)cc3)cc2C1=O
→ 42[16.7 µM] | -22
> C[C@@H]1CN([C@@H](C)CO)C(=O)c2cc(/C=C/c3ccccc3)cnc2O[C@H]1CN(C)C(=O)c1ccncc1
→ -11[16.7 µM] | 5
> O=C(Nc1ccc2c(c1)[C@@H]1C[C@@H](CC(=O)N3CCCCC3)O[C@@H](CO)[C@@H]1O2)c1ccc2c(c1)OCO2
→ -6[16.7 µM] | 12
> CN1C(=O)c2cc(NC(=O)C3CC3)ccc2OC[C@@H]2O[C@@H](CC(=O)NCCc3ccncc3)CC[C@@H]21
→ -1[16.7 µM] | -6
> C[C@@H]1CCCCO[C@H](CN(C)S(=O)(=O)c2ccccc2)[C@@H](C)CN([C@@H](C)CO)C(=O)c2cc(NC(=O)CCC(F)(F)F)ccc2O1
→ 7[16.7 µM] | 23
> O=C(C[C@@H]1CC[C@@H]2[C@H](COC[C@H](O)CN2C(=O)c2ccccc2F)O1)NCc1ccc(Cl)c(Cl)c1
→ 9[16.7 µM] | -9
> COc1ccc(S(=O)(=O)Nc2ccc3c(c2)C(=O)N([C@@H](C)CO)C[C@H](C)[C@H](CN(C)Cc2ccc(-c4ccccc4)cc2)O3)cc1
→ -1[16.7 µM] | 14
> COc1ccc(-c2ccc([C@@H]3[C@@H](CO)N(C(=O)NC4CCCC4)[C@H]3C#N)cc2)cc1
→ -2[16.7 µM] | -12
> COc1ccc(S(=O)(=O)Nc2ccc3c(c2)CC(=O)N([C@H](C)CO)C[C@H](C)[C@H](CN(C)S(=O)(=O)c2ccc(F)cc2)O3)cc1
→ 91*[16.7 µM] | 20

# One compound at a time, from the list above. Order of values: HIV Env fusion, Yeast UUG start
# Record of CCC(=O)N[C@H]1C=C[C@@H](CC(=O)NCC2CCCCC2)O[C@@H]1CO → 17[16.7 µM], -9
# Record of O=C(C[C@@H]1C=C[C@@H](NC(=O)C2CC2)[C@H](CO)O1)Nc1ccccc1 → -26[16.7 µM], -15
# Record of CN1CCN(C(=O)C[C@@H]2C[C@@H]3c4cc(NC(=O)Nc5ccc(C(F)(F)F)cc5)ccc4O[C@@H]3[C@@H](CO)O2)CC1 → 0[16.7 µM], -1

# Next section
# Every second line gives: HIV Env fusion | Yeast UUG start
> C[C@H](CO)N1C[C@H](C)[C@H](CN(C)C(=O)Nc2ccccc2)OCCCC[C@H](C)Oc2ccc(NS(=O)(=O)c3ccc(Cl)cc3)cc2C1=O
→ -3[16.7 µM] | 21
> CCCN(C)C[C@H]1OCCCC[C@H](C)Oc2ccc(NC(=O)c3ccccc3)cc2C(=O)N([C@@H](C)CO)C[C@H]1C
→ -25[16.7 µM] | 0
> C[C@@H]1CCCCO[C@H](CN(C)C(=O)Nc2ccccc2)[C@H](C)CN([C@@H](C)CO)C(=O)c2cc(NS(=O)(=O)c3cccs3)ccc2O1
→ -26[16.7 µM] | 16
> CC(C)NC(=O)Nc1cccc2c1O[C@@H](CN(C)S(=O)(=O)c1ccc(F)cc1)[C@H](C)CN([C@@H](C)CO)C2=O
→ 8[16.7 µM] | 3
